# Bioassay records deposited in PubChem BioAssay by National Center for Advancing Translational Sciences (NCATS).
# D2 agonist: agonists of human D2 dopamine receptor (beta-arrestin). P14416. AID 624465. DiscoveRx PathHunter D2 beta-arrestin, luminescence, 90 min; 100% = 57 uM dopamine signal. activation, % (no concentration beside the values). 0.084% of 360,000 active; in the data active = activation above about 40%; inconclusive = about 15% to 40%; inactive = below about 15%; also: compound concentration not given in the record; the text of the record calls up to 30% inactive
# Target sequence (P14416 whole entry, looked up): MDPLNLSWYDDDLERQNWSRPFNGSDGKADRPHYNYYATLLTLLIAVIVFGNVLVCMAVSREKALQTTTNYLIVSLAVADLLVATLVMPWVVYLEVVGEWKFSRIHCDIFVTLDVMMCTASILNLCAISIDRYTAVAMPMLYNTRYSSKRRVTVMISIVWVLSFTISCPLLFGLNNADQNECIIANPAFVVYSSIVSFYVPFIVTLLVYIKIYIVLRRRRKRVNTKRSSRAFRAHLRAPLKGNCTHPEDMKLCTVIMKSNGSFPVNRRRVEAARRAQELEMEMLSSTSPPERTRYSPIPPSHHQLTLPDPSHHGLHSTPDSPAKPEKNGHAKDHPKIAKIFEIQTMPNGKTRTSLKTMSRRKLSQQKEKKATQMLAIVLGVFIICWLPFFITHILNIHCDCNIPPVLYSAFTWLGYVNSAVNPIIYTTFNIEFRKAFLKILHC
#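 DiscoveRx PathHunter D2 beta-arrestin cells (2,100/well) attached overnight, then compound-stimulated 90 min at 37 C in HBSS/10 mM HEPES/0.1% Tween-20 buffer; beta-galactosidase complementation read by luminescence after 1 h at ambient temperature. Dopamine 57 uM final (EC100) as control.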
# ClpP mod: qHTS Assay for Activators of ClpP; ATP-dependent Clp protease proteolytic subunit (Bacillus subtilis (strain 168)), P80244; 1.9% of 340,000 active; purified B. subtilis ClpP, FRET peptide cleavage, 20 min; Potency, µM (titrated, usually from 57.5 µM), without a hit: at the top dose activity change, negative = active; active = well fitted falling curve with a large enough effect; inconclusive = small, poorly fitted or top-dose-only effect; inactive = no such curve, though single readings can be large or run the other way; also: potency is read from the fitted curve at half-maximal effect; the source files actives as falling curves though it sought activators and does not explain the sign; nearly all actives have a fitted effect of over 65% in size; many hits overshoot -100%
# Target sequence (P80244 whole entry, looked up): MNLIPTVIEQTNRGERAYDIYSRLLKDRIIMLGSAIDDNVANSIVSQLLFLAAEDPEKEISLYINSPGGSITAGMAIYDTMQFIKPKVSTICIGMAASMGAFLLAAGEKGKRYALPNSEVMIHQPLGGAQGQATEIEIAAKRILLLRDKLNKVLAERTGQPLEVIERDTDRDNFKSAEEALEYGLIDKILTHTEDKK
#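 ClpP 10 microg/mL final, pH 8 Tris/KCl buffer with BSA, glycerol, Tween-20; compound pinned in; FRET-FV substrate; RT 20 min; Ex320/Em430; ΔFRET vs ADEP 5.8 microM, DMSO, no enzyme.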
# gsp agonist: agonists of gsp mutant (McCune-Albright syndrome); Potency, µM (titrated, usually from 76.9 µM), inactives show at the top dose activation (cAMP increase), usual class: activators; 0.13% of 340,000 active; gsp mutant cells, cAMP HTRF, 30 min; control for the full effect not named in the record; active = well fitted activation curve with a large enough effect; inconclusive = small, poorly fitted or top-dose-only effect, or another doubt; inactive = no such curve, though single readings can be large or run the other way; cell line not stated here;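 also: phosphodiesterase inhibitor Ro 20-1724 added with compounds to block cAMP breakdown; potency is read from the fitted curve at half-maximal effect; nearly all actives have a fitted effect of over 60% in size; about a fifth of the inactives were tested at one dose only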
#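 Cells stably selected in G418 were plated at 2000/well, grown 16-24 hr, then given compounds in DMSO with the PDE inhibitor […] (300 uM solution added) for 30 min at 37C; cAMP was read by HTRF.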
# Sfp PPTase inh: inhibitors of Bacillus subtilis Sfp phosphopantetheinyl transferase | Potency, µM, for inactives: max response, negative = inhibition, usual class: inhibitors | 3.5% of 310,000 active | Biochemical Sfp PPTase activity, qHTS; active = well fitted inhibition curve with a large enough effect; inconclusive = small, poorly fitted or top-dose-only effect, or another doubt; inactive = no such curve, though single readings can be large or run the other way;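 also: the enzyme is Sfp with the accession as filed and its product quenches rhodamine fluorescence; potency is read from the fitted curve at half-maximal effect; 0% = enzyme reaction without inhibitor and -100% = no enzyme wells; top concentration of the series not given in the record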
#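 Buffer: 50 mM Hepes-Na pH 7.6, 10 mM MgCl2, 0.01% Nonidet P-40, 0.01% BSA. Enzyme 15 nM, pre-exposed to compound 15 min; substrates then added and fluorescence change tracked over 30 min.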
# PINK1 modulator: changes PINK1 expression; PINK1 immunofluorescence, high-content cytometry, 24 h; Potency, µM (top dose mostly 76.6 µM), for the others: at the highest dose activation (PINK1 increase), usual class: activators; 0.2% of 410,000 active; AID 624263; active = well fitted activation curve with a large enough effect; inconclusive = small, poorly fitted or top-dose-only effect; inactive = flat fitted curve, though single readings scatter; cell line not stated here;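 also: potency is read from the fitted curve at half-maximal effect; % of control where 0% means no effect; nearly all actives have a fitted effect of over 65% in size; a mitochondrial uncoupler was the plate control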
#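 Stable cell line, 250 cells/well, 12 h attachment; compounds pinned at 5 concentrations, 24 h; CCCP control. Fixed with nuclear dye, primary antibodies 12 h at 10 degrees C, secondary plus cell stain; laser-scanning cytometer read.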
# Menin-MLL FL inh: menin-MLL binding inhibition, fluorescein peptide; AID 1766; 290,000 tested, under 10 active; FP activity change, % at 61.4 µM; Fluorescence polarization, fluorescein-MLL peptide displacement from menin; inconclusive = falling polarisation curve, or a change in total fluorescence; inactive = total fluorescence flat and polarisation flat or rising; no compound was filed as active; the % refers to the polarisation; negative = inhibition;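 also: % of control where 0% means no effect; inhibitors lower the polarisation; unlabelled MLL peptide was the positive control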
# gsp antag: antagonizes gsp, the McCune-Albright syndrome mutation. gsp-mutant cells, cAMP HTRF, 30 min; control for the full effect not named in the record. Potency, µM (series often up to 76.9 µM), for the others: top-dose activity change, negative = inhibition, most hits filed as inhibitors. 0.4% of 340,000 active. AID 624288; active = falling curve of any shape with a large fitted effect; inconclusive = falling curve, mostly with a smaller effect; inactive = flat or rising curve; cell line not stated here;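 also: intracellular cAMP measured with PDE inhibitor Ro 20-1724 present during compound exposure; potency is read from the fitted curve at half-maximal effect; % is scaled to controls: 0 for no effect and ±100 for the full control effect; nearly all actives have a fitted effect of over 65% in size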
#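 Measurement of cellular cAMP by homogeneous time-resolved fluorescence following a 30 min compound exposure at 37C. The PDE inhibitor […] was present throughout; the assay buffer was DPBS with 0.05% BSA and 0.005% Tween 20.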
# Starred values were filed as active, the others as inactive; ? = inconclusive; . = not tested or not shown; & = joins results of further samples; [ ] = remark or other dose.
# Below each SMILES: ClpP mod	PINK1 modulator	Sfp PPTase inh	gsp antag	Menin-MLL FL inh	D2 agonist	gsp agonist
CN1CCN(C(=O)C2=C[C@H](c3csc4ccccc34)C[C@H](OCCCCO)O2)CC1
→ -1.1%	-0.6%	-5%	-4%	-4.1	-1.6	.
CN1CCC(C)(C(=O)Nc2cccc(Oc3ccccc3)c2)C1 (stereo not drawn)
→ 1.9%	1.6%	.	.	.	5.3	.
O=C(COc1ccccc1Cl)N1CCN(c2ccccn2)CC1
→ ?	2.7%	.	6%	.	-3.0	?
CCCCOc1ccc(NC(=O)CCSc2nccn2C)cc1
→ -2.9%	2.9%	18%	-5%	0.5	-0.2	-1%[15.4 µM]
CCOC(=O)n1c2ccccc2c(=O)n1CCO
→ 0.8%	0.0%	.	.	.	8.1	.
Nc1ccn(Cc2ccccc2)n1
→ 0.2%	0.2%	28%	8%	-2.8	-1.3	2%
Cc1ccc(Nc2nnc(SCC(=O)Nc3cccc(S(=O)(=O)NC4=NCCCCC4)c3)s2)cc1
→ -3.3%	-0.5%	-2%	-3%	1.2	0.6	5%
COc1cc(C(C)=O)ccc1OCC(O)CN1CCN(c2c(C)cccc2C)CC1 (stereo not drawn)
→ .	2.1%	18%	-4%	1.1	-5.6	?
CC(=N\Nc1ccc(Cl)cc1)/C(=N/O)C(=O)Nc1ccccc1
→ -0.7%	11%	4%	-5%	-0.9	0.6	?
CN(Cc1nc2ccccc2c(=O)[nH]1)C(=O)c1ccc(NC(=O)CSc2nnnn2C)cc1
→ -3.1%	-1.2%	.	-10%	.	-0.4	7%
COc1ccc(C(=O)N/C(=C\c2cccc3ccccc23)C(=O)NCCc2c[nH]c3ccccc23)cc1OC
→ -2.0%	-5.2%	2%	-6%	1.1	-1.8	?
CCOCCCn1c(SCc2nc3ccccc3s2)nc2ccccc2c1=O
→ -13%	6.0%	-14%	-17%	1.8	2.4	19%
CC(=O)Nc1cccc(-c2ccnc3c2CC(C(=O)NCc2ccc(N4CCN(C)CC4)cc2)O3)c1 (stereo not drawn)
→ -2.6%	-0.8%	.	.	.	-5.3	.
CCCCNC(=S)NCCN1CCN(C(=S)NCCCC)CC1
→ .	1.9%	15%	-29%	0.6	-8.6	3%[15.4 µM]
COc1cc(C(=O)N(C(C)C)C2CCCCC2)cc(OC)c1OC
→ -2.1%	0.1%	.	.	.	-1.2	0%
CCN(CC)CCn1c(C)nc2c(sc3nc4c(cc32)COC(C)(C)C4)c1=O
→ 1.3%	-0.2%	-5%	-3%	3.0	-6.5	18%[15.4 µM]
Cc1ccc(C(=O)Nc2nnc(-c3cccs3)s2)cc1C
→ ?	10%	15%	-8%	-1.1	-2.1	0%
CCn1cc(C(=O)OCC(=O)NCc2ccccc2Cl)c(=O)c2ccc(C)nc21
→ .	1.2%	4%	.	-0.7	4.5	0%[15.4 µM]
Cc1cc(C(=O)Nc2ccc(CC(=O)O)cc2)c(C)o1
→ .	-0.3%	14%	9%	2.0	3.6	-24%
CCCCC(=O)N(C)c1c(CC)nc2c(OCC(=O)N(C)C)cccn12
→ 0.5%	0.1%	.	.	.	0.8	.
Cc1ccc(S(=O)(=O)/N=S(/c2ccccc2)C(C)C)cc1 (stereo not drawn)
→ .	0.2%	18µM*	5%	-0.3	-2.6	8%[15.4 µM]
O=C(CN1CC(=O)Oc2ccccc21)OCC(=O)c1ccc(Br)cc1
→ 0.4%	0.6%	.	-6%	.	-3.3	13%
Cc1cccc(N2CCN(S(=O)(=O)c3ccc4c(c3)CCCN4C(=O)C3CCC3)CC2)c1C
→ -1.1%&-2.6%	0.2%&0.7%	6%	?	0.4	-4.5	18%
O=C(c1ccco1)c1cn(CC(=O)N2CCCc3ccccc32)c2ccccc12
→ -5.3%	-2.5%	-18%	-2%	5.9	-1.7	-5%
C=CCn1c(SCC(=O)N2CCC(C)CC2)nc2c([nH]c3ccccc32)c1=O
→ -1.5%	5.4%	.	.	.	2.3	?
Cc1ccccc1-n1c(SCC(=O)NCc2cccs2)nc2ccccc2c1=O
→ -0.9%	2.4%	3%	-25%	5.1	1.2	-5%
O=C(NC(Cc1ccc(O)cc1)C(=O)O)c1ccc2c(c1)OCO2 (stereo not drawn)
→ -1.3%	1.1%	.	20%	.	1.6	-7%
O=C(Cn1nnc(-c2ccc(F)cc2)n1)N1CCCCC1
→ .	-0.4%	17%	9%	-0.9	0.3	0%
O=C(O)C1CC(=O)n2c(nc3ccccc32)S1 (stereo not drawn)
→ -4.2%	6.3%	4%	5%	1.7	-3.9	24%
Cc1ccccc1CS(=O)(=O)CCC(=O)NCCCN1CCN(c2ccccc2F)CC1
→ -7.1%	2.6%	9%	6%	0.1	4.7	3%

# One compound at a time, from the list above:
# CN1CCN(C(=O)C2=C[C@H](c3csc4ccccc34)C[C@H](OCCCCO)O2)CC1 as listed: ClpP mod: -1.1%; PINK1 modulator: -0.6%; Sfp PPTase inh: -5%; gsp antag: -4%; Menin-MLL FL inh: -4.1; D2 agonist: -1.6; gsp agonist: .
# O=C(c1ccco1)c1cn(CC(=O)N2CCCc3ccccc32)c2ccccc12 as listed: ClpP mod: -5.3%; PINK1 modulator: -2.5%; Sfp PPTase inh: -18%; gsp antag: -2%; Menin-MLL FL inh: 5.9; D2 agonist: -1.7; gsp agonist: -5%

# (further entries)
# Below each SMILES: ClpP mod	PINK1 modulator	Sfp PPTase inh	gsp antag	Menin-MLL FL inh	D2 agonist	gsp agonist
COCCCNC(=O)CSc1nc2ccccc2c(=O)n1Cc1ccc2c(c1)OCO2
→ 28µM*	5.5%	13%	-4%	-3.8	-0.3	5%[15.4 µM]
CCN(CC)CCN(C(=O)Cn1nnc(-c2ccc(C)o2)n1)C(C(=O)NC(C)(C)C)c1cccs1 (stereo not drawn)
→ .	-1.0%	-5%	3%	1.5	0.6	-2%
CCO[C@H]1OC(C(N)=O)=C[C@@H](c2coc3ccccc3c2=O)[C@@H]1CCCO
→ 2.2%	-1.2%	21%	4%	-0.3	-2.2	22%
O=C(CN(CC1CCCO1)C(=O)CNS(=O)(=O)c1ccccc1)NCCc1ccccc1 (stereo not drawn)
→ .	1.0%	8%	.	-5.0	-1.2	8%[15.4 µM]
O=C(CCCn1c(=O)c2ccccc2n(CC(=O)NCc2ccco2)c1=O)NCc1ccco1
→ -10%	0.5%	10%	-1%	-0.1	-1.8	?
O=C(Nc1cccs1)Nc1cccnc1Cl
→ .	4.9%	-4%	-1%	?	-2.9	10%
COc1ccccc1N(CC(=O)N1CCCC1)S(=O)(=O)c1cc([N+](=O)[O-])ccc1Cl
→ 0.0%	1.0%	.	-9%	.	9.3	-23%
Cn1c(N2CCN(C(=O)Nc3ccc(C(F)(F)F)cc3)CC2)nc2ccccc21
→ 0.4%	2.0%	16%	12%	3.5	2.3	-1%
CC(=O)N1CCN(S(=O)(=O)c2ccc(C)cc2)C1c1ccc(N(C)C)cc1 (stereo not drawn)
→ 1.4%	0.6%	-1%	-2%	-2.0	0.0	6%
C/C(=N\NC(N)=S)C1(C)CC2(CC(C)(C)OC2=O)C(=O)O1 (stereo not drawn)
→ -0.7%	1.6%	-15%	5%	-6.3	-6.1	6%[15.4 µM]
CCOC(=O)c1c(NC(=O)OC)sc(C(=O)N(C)C)c1C
→ -6.8%	-0.9%	-29%	-7%	0.9	4.2	-40%[inhibitor]
O=C1C(C=NCCCn2ccnc2)=C(O)c2ccccc21
→ 2.2%	-0.5%	.	-3%	.	-3.2	35%
Cc1ccc(-n2cc(C(=O)c3cc(Cl)ccc3O)cc(C#N)c2=O)cc1
→ 77%	18µM*	-3%	-28%	?	4.3	2%
O=S(=O)(/N=C(/Nc1ccccn1)c1ccccc1)c1ccccc1
→ -0.7%	-3.9%[38.3 µM]	25%	2%	0.6	3.3	1%
COC(=O)c1[nH]c2ccc(C)cc2c1NC(=O)Nc1ccccc1OC
→ -20%	3.0%	?	-11%[15.4 µM]	3.7	-3.7	-18%
CC1CCCCN1CC(=O)Nc1cc(S(=O)(=O)N2CCOCC2)ccc1N1CCCC1 (stereo not drawn)
→ .	2.0%	7%	-6%	3.7	-1.1	14%[15.4 µM]
NNC(=O)CCN(Cc1ccco1)S(=O)(=O)c1ccc(Cl)cc1
→ -1.3%	0.9%	6%	10%	2.0	-0.3	-18%
CC(C)(C)NC(=O)Cn1nc(C(F)(F)F)c2c1CCCC2
→ .	0.0%	22%	1%	0.2	-6.5	-32%[inhibitor]
C=CCOc1cccc(C(=O)N2CCCC(CCC(=O)NCc3ccccc3F)C2)c1 (stereo not drawn)
→ -0.2%	1.2%	13%	-7%	0.4	-0.8	-41%[inhibitor]
Cc1cc2cc(CNC(=O)COc3ccccc3)ccc2n1C
→ -3.1%	0.9%	5%	2%	1.0	-0.7	5%
C=CCc1ccc(OCC(O)CN2CCN(c3ccccc3OC)CC2)c(OC)c1 (stereo not drawn)
→ -0.8%	-1.3%	-8%	7%	-6.4	5.3	-9%
Fc1ccc(-n2nnc(-c3cccnc3Cl)n2)cc1
→ -1.4%	4.9%	3%	7%	-3.2	-1.7	.
Cc1cc(C)cc(NC(=O)CCn2c(=S)[nH]c3ccccc3c2=O)c1
→ -2.0%	3.5%	-10%	-2%	.	-1.5	-4%
O=C1CSC(=S)N1N=Cc1c[nH]c2ccc(Br)cc12
→ -1.3%	3.2%	.	.	.	?	-44%[inhibitor]
CC(NC(=O)/C(=C\c1ccco1)NC(=O)c1ccccc1Br)C(=O)O (stereo not drawn)
→ .	0.7%	4%	11%	-0.6	-1.6	0%[15.4 µM]
COc1ccc(C2C=C(c3ccccc3)Nc3nc(NC(C)=O)nn32)cc1 (stereo not drawn)
→ 5.1%	-0.8%	-7%	.	0.9	.	.
CN(C[C@H](Cc1ccccc1)N(C[C@H](Cc1ccccc1)N(CCc1cc(C(F)(F)F)cc(C(F)(F)F)c1)N=O)N=O)N=O
→ -1.8%	0.3%	15%	5%	-2.0	-1.7	8%
CCOC(=O)Cc1csc(NC(=O)c2cc(-c3ccncc3)nc3ccccc23)n1
→ -0.4%	-0.4%	.	?	.	12	-2%
